Bioassay records from PubChem BioAssay.
AF4-AF9 inh: blocks AF4 peptide binding to human AF9. P42568. AlphaScreen, biotin-AF4 peptide binding to FLAG-AF9. inhibition, % at 10 µM. 0.47% of 350,000 active. AID 651704;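 active = every replicate reaching a set inhibition limit, whatever the replicate mean, cut at about 25% in these data; inconclusive = mean inhibition reaches that limit but some replicates miss it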;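 also: 0% = plate neutral control median and 100% = total signal loss; the record names both 10 and 1 µM as test concentration; the first replicate is given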
Target sequence (P42568 whole entry, looked up): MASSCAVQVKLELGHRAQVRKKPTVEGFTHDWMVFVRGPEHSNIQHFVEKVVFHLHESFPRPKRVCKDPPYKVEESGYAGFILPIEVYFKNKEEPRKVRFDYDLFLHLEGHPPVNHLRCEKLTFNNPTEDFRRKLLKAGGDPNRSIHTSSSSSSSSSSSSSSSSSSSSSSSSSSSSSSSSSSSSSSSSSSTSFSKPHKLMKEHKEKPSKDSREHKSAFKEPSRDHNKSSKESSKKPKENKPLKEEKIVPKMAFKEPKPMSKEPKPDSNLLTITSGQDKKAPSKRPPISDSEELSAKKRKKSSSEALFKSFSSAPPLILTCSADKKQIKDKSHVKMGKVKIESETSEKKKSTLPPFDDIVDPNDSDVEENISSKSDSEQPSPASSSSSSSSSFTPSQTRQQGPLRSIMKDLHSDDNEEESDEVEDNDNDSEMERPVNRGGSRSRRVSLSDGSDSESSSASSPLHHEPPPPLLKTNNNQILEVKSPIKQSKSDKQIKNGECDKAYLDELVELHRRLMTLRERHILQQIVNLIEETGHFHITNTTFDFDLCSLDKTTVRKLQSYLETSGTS
Calb FLC: affects C. albicans growth with fluconazole; 0.57% of 300,000 active; C. albicans CaCi-2 (fluconazole-resistant clinical isolate) + fluconazole, Alamar Blue growth, 48 h; growth inhibition, % (test concentration not listed); AID 1979;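 active = most replicates above 75%; inconclusive = exactly half above 75%; inactive = most below 75%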;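 also: all wells also contain fluconazole at 8 µg/ml as a sub-toxic cotreatment; 0% = median of DMSO wells and 100% = median of geldanamycin control wells; wells of about 8 µL received 7.5 nL stock; the first replicate is given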
T cruzi inh: blocks replication of Trypanosoma cruzi; T. cruzi beta-gal in NIH3T3, luminescence, 90 h; inhibition, % (concentration not given with the values); AID 1885; 1.4% of 300,000 active;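 active = mean inhibition across valid replicates above about 55%, limit read from the data; inconclusive = mean below that limit but half or more replicates reach it; inactive = mean below it, under half of replicates reach it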;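 also: signal also drops with host cell toxicity which is not excluded here; 0% = plate median of DMSO wells and 100% = zero luminescence signal; higher percent means less beta-gal luminescence so fewer parasites; stock transfer was 50 nL into about 50 µL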
Vif A3G: inhibitors of Vif binding to APOBEC3G peptide, primary screen, biochemical, TR-FRET, GST-Vif 1-94, biotin-A3G peptide, dose response retest (AID 1117319); TR-FRET GST-Vif / biotin-A3G peptide binding; higher % means a stronger effect; test concentration not given here; strong numbers were not always called active; 0.57% of 260,000 active; one-dose inhibition, %; IC50 in µM for titrated hits;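 active = above the screen mean plus three standard deviations and confirmed in dose response; inconclusive = results disagree or hit not tested in dose response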;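 also: Vif residues 1-94 fused to GST binding biotinylated APOBEC3G peptide 110-148; 0% = full assay without inhibitor and 100% = GST in place of GST-Vif; retest series ran down from 100 µM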
RanGTP-Imp inh: disruptors of Ran-importin-beta complex formation – biochemical, FRET, CFP-Ran, YFP-importin-beta, homogeneous, primary screen | cell-free CFP-Ran/YFP-importin-beta FRET ratio | inhibition, % (test concentration not listed) | 1.1% of 300,000 active | AID 2216;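 active = most replicates above 15%; inconclusive = exactly half above 15%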;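 also: 0% = DMSO wells and 100% = Ran loaded with GDP instead of GTP; wells of about 40 µL received 100 nL stock; the first replicate is given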
rRNA inh HTS: selective bacterial rRNA inhibition in E. coli; E. coli WT GFP vs humanized-ribosome RFP mutants, fluorescence, 24 h; hits give low values; DMSO median 0, no signal -100; GFP signal change (wild-type ribosome), % (concentration not given with the values); 1.6% of 350,000 active; AID 720706;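 active = significant combined selectivity score with lowered wild-type GFP, culture density cut under 30%, mutant RFP and density less affected; inactive = any of these conditions unmet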; also: one replicate is shown; some compounds called inactive have numbers as strong as hits
Beta apoptosis: blocks beta cell apoptosis | INS-1E cytokine-induced death, ATP luminescence, 48 h; percent of positive-control rescue, neutral wells zero | protection from apoptosis, % (test concentration not listed) | 0.8% of 300,000 active;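 active = all replicates at 75% or more, or half of them and the mean; inconclusive = half reach 75% but not the mean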;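 also: 0% = cytokine-treated negative control wells and 100% = positive control rescue; higher means more ATP so stronger rescue from cytokine killing; wells of about 40 µL received 100 nL stock; the first replicate is given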
Bfl-1 A1 inh: inhibitors of the anti-apoptotic protein A1, read as caspase activation. MEF A1-2A-BIM cells, Caspase-Glo 3/7 luminescence, 3 h; percent of clofoctol response, vehicle zero. caspase activation, % (test concentration not listed). 0.066% of 330,000 active;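 active = over half of replicate activation scores above 10%, or exactly half above 10 with the replicate mean above 10; inconclusive = replicate mean below 10 yet half the replicates above 10; inactive = over half of replicates below 10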;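 also: wells of about 30 µL received 50 nL stock; many hits fall short of the cut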
rRNA inh HTS OD600: also measured in rRNA inh HTS; calls as there; OD600 change, %; measured here: OD600 growth;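 optical density of the mix in the first replicate; 0 = DMSO median and -100 = no signal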
rRNA inh HTS RFP: further read-out of rRNA inh HTS, marked with its call; RFP signal change, %; measured here: RFP humanized mutant strains;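 first replicate; 0 = DMSO median and -100 = no signal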
Numbers without * were called inactive; u = inconclusive; x = not tested or not shown; & = joins results of further samples. This is a subset, so the mix of outcomes need not match the whole.

SMILES	AF4-AF9 inh	Calb FLC	T cruzi inh	Vif A3G	RanGTP-Imp inh	rRNA inh HTS	rRNA inh HTS OD600	rRNA inh HTS RFP	Beta apoptosis	Bfl-1 A1 inh
CCOc1ccccc1NC(=O)NCc1ccc(F)cc1	-0.9	-6	5	-2%	4.0	11	2	2.5	1	2.0
O=C(Cc1cccs1)NCc1ccccc1	x	6	-7	7%	1.5	x	x	x	-2	0.4
O=C(CN1C(=O)c2ccccc2S1(=O)=O)NC1CCCC1	x	0	-11	8%	0.8	x	x	x	-2	0.6
COc1ccc(C(=O)COC(=O)c2ccc3c(c2)NC(=O)CS3)c(OC)c1	0.9	17	3	-10%	1.1	-1	-7	1.5	14	0.2
CC(C)CC(NC(=O)CNC(=O)C1O[C@@H]2OC(C)(C)O[C@@H]2[C@H]2OC(C)(C)O[C@@H]12)C(=O)O (stereo partly specified)	-5.3	1	-2	x	10.0	10	15	2.1	-6	0.5
O=C(Cn1cccc1C(=O)c1ccccc1)NCc1ccccc1	x	2	-9	-3%	2.7	x	x	x	0	-0.1
CCC(=O)Nc1ccc2nc(C)n(CC(=O)Nc3ccccc3)c(=O)c2c1	-1.0	11	4	6%	-1.8	4	7	-6.5	2	-0.1
CC(C)NC(=O)c1cnc(Sc2ncc(C(F)(F)F)cc2Cl)n1C	x	-3	-6	6%	-4.6	x	x	x	-18	0.1
O=C(c1ccncc1)N1CCN(S(=O)(=O)c2cc(C(F)(F)F)cc(C(F)(F)F)c2)CC1	0.0	12	5	0%	u	-7	-4	-6.5	x	-0.4
O=c1cc(NC2CCCCC2)c2ccccc2o1	x	-1	-11	4%	3.9	x	x	x	3	-0.5
Cc1ccc(C2NC(=O)c3ccccc3O2)cc1 (stereo unspecified)	-0.4	-3	-3	x	-2.7	4	1	-0.9	-3	0.2
O=C(Nc1ccccc1F)C1CCCN1S(=O)(=O)c1cccc2nsnc12 (stereo unspecified)	3.4	4	-3	3%	1.5	-4	-1	-2.1	-6	0.5
Cc1[nH][nH]c(=O)c1N=Nc1ccccc1C#N	0.3	-5	44	-6%	-5.3	3	8	-1.1	-2	-0.2
Cc1ccc(NC(=O)CS(=O)CC(=O)N(CC(=O)NC2CCCC2)c2cc(C)ccc2C)cc1 (stereo unspecified)	x	-14	10	-8%	-1.5	x	x	x	-3	0.3
O=C(Nc1ccccc1)C1CC2CCC1C2 (stereo unspecified)	-4.7	-8	-10	-2%	2.4	-2	3	2.0	0	-0.5
O=C1CCN(S(=O)(=O)c2ccccc2)CCN1CCOCc1ccc(F)cc1	-2.6	-17	28	x	0.9	-3	2	-4.0	2	0.8
COc1cccc(-c2nc(C(N)=O)c3[nH]c(=O)n(-c4ccccc4)c3n2)c1OC	-2.0	0	2	-12%	1.4	6	1	1.5	5	0.7
CC(C)(C)c1ccc(C(=O)CSc2ncn[nH]2)cc1	x	12	4	4%	2.8	x	x	x	-8	-1.7
COc1cccc(C(=O)NC2CCCc3c2cnn3-c2cc(C)cc(C)c2)c1 (stereo unspecified)	-3.3	5	22	x	-4.2	-9	-12	-2.4	3	0.2
O=C(c1ccco1)c1cn(CC(=O)N2CCCCC2)c2ccccc12	x	-8	-2	13%	0.3	x	x	x	-1	0.8
O=C(c1ccco1)N1CCN(Cc2cc(=O)c(OCc3ccccc3F)co2)CC1	-0.1	-1	-7	2%	-0.9	5	5	-2.2	x	-0.2
Cc1ccc(C)c(NC(=O)C(c2ccccc2)N2CCN(CC(=O)N3CCOCC3)CC2)c1 (stereo unspecified)	2.0	x	x	x	x	7	13	0.0	4	0.6
COc1cc(OC)c(C(=O)OCC(=O)NC23CC4CC(CC(C4)C2)C3)cc1OC	0.1	x	x	x	x	5	9	0.5	6	-0.7
COc1ccc(-n2c(N)cc(=O)[nH]c2=O)cc1	x	2	-9	-4%	6.1	x	x	x	-1	0.0
COc1ccc(NS(=O)(=O)c2cc(NC(=O)c3ccc(=O)[nH]c3)ccc2N2CCCC2)cc1	7.5	12	-14	19%	0.1	-21	-20	-0.7	1	1.5
N#CCCN(C(=O)CN1CCN(S(=O)(=O)c2ccc3c(c2)OCCO3)CC1)c1ccc(F)cc1	2.1	x	x	-8%	x	5	9	-5.2	1	-0.1
C[C@H]1CCC(=O)N([C@H](COc2ccccc2)Cc2ccccc2)CC1	-1.8	-4	32	x	-0.2	-39	-74	-21	7	0.2
Cc1ccccc1CC(=O)N1CCN(S(=O)(=O)c2ccc(Cl)s2)CC1	0.2	x	x	-2%	x	-3	-5	5.2	-19	-0.1
COc1ccccc1N1CCN(C(=O)Cc2c(C(=O)O)[nH]c3ccc(Cl)cc23)CC1	-2.8	-5	-8	x	0.1	-4	2	1.2	x	0.5
CC1C(=O)NC(=O)C1c1ccccc1 (stereo unspecified)	x	-1	-3	-9%	2.7	7	3	-1.4	-6	0.9
NC(=O)c1cccc2ccccc12	0.8	19	-9	15%	1.0	1	-14	-5.4	-6	0.5
Cc1cccc2c3c([nH]c12)C(=O)CC(C)(C)S3	1.4	4	-3	x	8.2	14	10	-0.4	-4	0.4
O=C(CC1NCCc2ccccc21)Nc1ccc(Cl)cc1 (stereo unspecified)	1.7	-7	3	x	7.2	-10	-10	0.5	-1	-0.2
Cc1ccc(NS(=O)(=O)c2cccc(C(=O)NCCCN3CCOCC3)c2)cc1	-0.8	-5	-17	0%	4.2	3	3	2.4	-9	-0.1
O=C(c1cccs1)N(CC1CCCO1)c1nc(-c2ccccc2)cs1 (stereo unspecified)	x	2	22	0%	-4.9	x	x	x	-6	-0.1
C=CCNc1nnc(SCC(=O)N2CCCCC2)c2ccccc12	x	-7	14	6%	-7.0	x	x	x	-2	0.7
Cn1nnc2cc(C(=O)NC(C)(C)C)ccc21	x	-4	u	-10%	-2.0	x	x	x	-2	0.4
Cc1cc(C)cc(-n2nnnc2SCC(=O)Nc2nc(-c3ccc(F)cc3)cs2)c1	-15	0	14	10%	-1.0	4	2	4.8	5	0.8
COc1ccc(CCN(C)C2CCCN(S(=O)(=O)c3ccccc3F)C2)cc1OC (stereo unspecified)	3.8	-6	21	x	1.1	6	18	1.9	-4	1.3
CCN=C1SC(C(N)=O)CC(=O)N1CC (stereo unspecified)	x	-9	-2	2%	-1.2	x	x	x	-5	0.5
Cc1nnc(SCC(=O)Nc2nccs2)s1	x	-15	6	19%	-3.7	x	x	x	-3	0.2
COC(=O)CNc1cccc(C(F)(F)F)c1	-1.4	-12	-12	x	0.3	5	3	-1.0	0	-0.3
NCC(c1ccc(Cl)cc1Cl)c1c[nH]c2ccccc12 (stereo unspecified)	2.1	80*	-6	x	-1.7	-9	-24	3.2	38	-0.1
N#CCC(=O)Nn1c(=S)[nH]c2ccccc2c1=O	-0.3	-6	11	10%	-0.2	3	-5	-1.4	-5	0.2
CCOc1cc(/C=C2/C(=N)N3C(=NC2=O)SN=C3S(=O)(=O)CC)ccc1OC(=O)c1ccco1	3.2	-1	0	x	-0.4	9	9	1.9	0	0.7
NC1=NC(=O)C2(COC(c3ccncc3)OC2)S1 (stereo unspecified)	2.5	-4	-2	0%	3.9	8	7	0.1	-2	2.0
OC1(c2ccccc2F)CCN(Cc2nnc(-c3ccccc3)o2)CC1	x	-5	9	31%	2.4	x	x	x	0	-0.2
CC(NC(=O)C1CC1)c1ccc(-c2ccccc2)cc1 (stereo unspecified)	-0.1	-54	-9	x	-0.8	4	5	2.9	1	-0.6
Cc1cccc(Cn2c(-c3ccc[nH]c3=O)nc3ccccc32)c1	12	8	-7	-2%	0.7	-8	-7	-0.2	1	-0.8
Cc1ccc2c(Cl)c(C)c(N3CCCC3)nc2n1	-1.6	23	9	-10%	u	-36*	-29*	-5.1*	5	0.7
Cc1cccc(C(=O)Nc2nccs2)c1[N+](=O)[O-]	0.8	1	-12	-1%	-0.3	-21	4	17	0	1.3
CCCn1nc(C(=O)OCC(=O)c2ccc3c(c2)NC(=O)CO3)c2ccccc2c1=O	x	-4	-14	-18%	-3.7	x	x	x	-2	0.5
CN(CCc1cnn(C)c1)C(=O)C1CCC(=O)N(CC2CCCCC2)C1 (stereo unspecified)	1.2	-4	-12	2%	1.1	0	2	-0.4	0	-0.2
CN(c1ccccc1)S(=O)(=O)c1ccc(C(=O)OCC(=O)NCc2ccco2)cc1	x	-6	8	8%&3%	3.7	x	x	x	-10	-0.2
Cc1ccc2nc(C3CCN(CC(=O)N4CCCCCC4)CC3)[nH]c2c1	x	-11	8	1%	1.8	x	x	x	0	-0.3
CCOc1cc(N2CCOCC2)c(OCC)cc1NC(=O)C(NC(=O)c1ccco1)C(C)C (stereo unspecified)	x	1	0	1%&-4%	-1.7	x	x	x	4	-0.8
CCOc1ccc(C(C(=O)NCC2CCCO2)N(Cc2cccnc2)C(=O)c2snc(C(N)=O)c2N)cc1 (stereo unspecified)	4.9	-8	-1	x	-0.5	3	12	1.1	x	x
Cc1ccccc1-n1nc(C(=O)O)c(C)c(C#N)c1=O	x	-2	-20	3%	-2.4	x	x	x	1	1.3
Cn1c(N)c(C(=O)CSc2nc3ccccc3c(=O)n2CCCN2CCOCC2)c(=O)n(C)c1=O	-1.9	8	13	-2%	0.9	10	1	4.2	0	0.8
COc1ccc(Cl)cc1S(=O)(=O)N1CCCC(C(=O)NCc2ccccn2)C1 (stereo unspecified)	-0.5	-7	3	-2%	1.2	10	3	-0.3	x	1.0

Shown with each value named: part of the list above.
> COC(=O)CNc1cccc(C(F)(F)F)c1
  AF4-AF9 inh = -1.4
  Calb FLC = -12
  T cruzi inh = -12
  Vif A3G = x
  RanGTP-Imp inh = 0.3
  rRNA inh HTS = 5
  rRNA inh HTS OD600 = 3
  rRNA inh HTS RFP = -1.0
  Beta apoptosis = 0
  Bfl-1 A1 inh = -0.3

> NCC(c1ccc(Cl)cc1Cl)c1c[nH]c2ccccc12 (stereo unspecified)
  AF4-AF9 inh = 2.1
  Calb FLC = 80*
  T cruzi inh = -6
  Vif A3G = x
  RanGTP-Imp inh = -1.7
  rRNA inh HTS = -9
  rRNA inh HTS OD600 = -24
  rRNA inh HTS RFP = 3.2
  Beta apoptosis = 38
  Bfl-1 A1 inh = -0.1

> N#CCC(=O)Nn1c(=S)[nH]c2ccccc2c1=O
  AF4-AF9 inh = -0.3
  Calb FLC = -6
  T cruzi inh = 11
  Vif A3G = 10%
  RanGTP-Imp inh = -0.2
  rRNA inh HTS = 3
  rRNA inh HTS OD600 = -5
  rRNA inh HTS RFP = -1.4
  Beta apoptosis = -5
  Bfl-1 A1 inh = 0.2

> CCOc1cc(/C=C2/C(=N)N3C(=NC2=O)SN=C3S(=O)(=O)CC)ccc1OC(=O)c1ccco1
  AF4-AF9 inh = 3.2
  Calb FLC = -1
  T cruzi inh = 0
  Vif A3G = x
  RanGTP-Imp inh = -0.4
  rRNA inh HTS = 9
  rRNA inh HTS OD600 = 9
  rRNA inh HTS RFP = 1.9
  Beta apoptosis = 0
  Bfl-1 A1 inh = 0.7
